GLA inh pH 4.5 – blocks human alpha-galactosidase A at pH 4.5 | purified enzyme, 4-MU-alpha-Gal fluorescence, pH 4.5 | activity change, negative = inhibition, % at 105 µM | 230,000 tested, under 10 active | AID 1467; inconclusive = small, poorly fitted or top-dose-only inhibition, or a rising curve; inactive = flat fitted curve, though single readings scatter; no compound was filed as active;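 also: 0% = full activity with enzyme and -100% = basal without enzyme; dose as in the result columns while the protocol names 77 µM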
Target sequence (P06280 whole entry, looked up): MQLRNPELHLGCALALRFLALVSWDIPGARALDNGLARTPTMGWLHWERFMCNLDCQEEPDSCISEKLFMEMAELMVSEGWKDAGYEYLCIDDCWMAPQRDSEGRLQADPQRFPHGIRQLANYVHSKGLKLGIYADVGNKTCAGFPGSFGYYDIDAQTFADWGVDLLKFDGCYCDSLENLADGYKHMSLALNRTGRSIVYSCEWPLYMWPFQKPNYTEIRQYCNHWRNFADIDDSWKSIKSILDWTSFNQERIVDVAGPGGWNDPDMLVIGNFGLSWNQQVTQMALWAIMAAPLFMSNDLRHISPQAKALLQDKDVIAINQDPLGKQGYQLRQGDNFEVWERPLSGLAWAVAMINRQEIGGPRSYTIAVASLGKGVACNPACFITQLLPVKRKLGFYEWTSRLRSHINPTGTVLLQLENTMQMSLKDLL
Rango-impB inh – inhibitors of Rango-importin beta complex formation; Potency, µM (top dose mostly 92.2 µM), inactives show at the top dose inhibition of complex formation; actives 0.031% (n = 340,000); Q14974; Rango CFP/YFP FRET sensor + importin beta, 45 min; AID 540263; active = rising FRET ratio curve, often small or poorly fitted; inconclusive = mostly compound fluorescence or quenching in the first reads; inactive = flat curves in all reads;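 also: potency is read from the fitted curve at half-maximal effect; 0% = DMSO wells and 100% = buffer wells lacking importin beta; nearly all actives have a fitted effect of over 15% in size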
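FRET biosensor (snurportin 1 IBB flanked by EYFP and cerulean), 50 nM, with compound 5 min, then 0.125 microM importin beta in PBS, 1 mM DTT, 0.02% Tween-20, 0.1% BSA. CFP/YFP ratio read after 45 min at room temperature; pre-read flags interference.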
miR-21 reporter – raises the signal of a miR-21 reporter; HeLa miR-21 FLuc reporter, luciferase, 48 h; Potency, µM (highest dose often 38.3 µM), for the others: at the top dose reporter change, positive = more light; 340,000 tested, under 10 active; AID 2288; active = well fitted rising curve with a large enough effect; inconclusive = small, poorly fitted or top-dose-only effect; inactive = no such curve, though single readings can be large or run the other way;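 also: % of control where 0% means no effect; miR-21 action dims this reporter so a rising signal means less miR-21 action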
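Luminescence from a firefly luciferase reporter carrying a miR-21 binding site downstream, stably expressed under a CMV promoter in HeLa cells that make miR-21 endogenously, reports miRNA modulation after 48 h compound exposure up to approximately 40uM final.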
Rango dissoc inh – inhibition of RanGTP-driven Rango-importin beta dissociation. O95149+P62826. Biochemical FRET Rango-importin beta, RanGTP-induced dissociation. Potency, µM (doses to about 46.1 µM), inactives show at the top dose activity change, negative = inhibition. actives 0.071% (n = 340,000); active means falling FRET ratio curve, often poorly fitted, with flat reads before Ran was added; inconclusive means other falling curves, or compound fluorescence or quenching; inactive means flat or rising ratio curve;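 also: potency is read from the fitted curve at half-maximal effect; % of control where 0% means no effect; nearly all actives have a fitted effect of over 45% in size; -100% = wells without RanGTP and RCC1; the record marks most hits as doubtful in a second field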
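Quantitative HTS using a FRET biosensor: 0.1 uM Rango, 0.25 uM importin beta, 0.6 uM Ran, 2 mM GTP, 0.2 uM RCC1 final, PBS with DTT, Tween-20 and BSA. Post-read taken 45 min after Ran addition.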
* marks the source's active call; other numbers are inactive results; ? = inconclusive; . = not tested or not shown; & = joins results of further samples.

1. N#Cc1ccc(OCC(=O)OCC(=O)NCCC2=CCCCC2)cc1
2. Cc1ccc(Cl)c(OCC(=O)NC2CCN(Cc3ccccc3)CC2)c1
3. O=C(O)c1cccc(-n2sc3ccccc3c2=O)c1
4. C=CCn1cc(C(=O)NCCCOC)c(=O)c2cc(S(=O)(=O)N(CC)CC)ccc21
5. COc1ccc([C@H]2CC(=O)C=C(c3cc4ccccc4s3)C2)cc1OC
6. COc1ccccc1CCC(=O)OCC(=O)NCc1ccc(OC)c(OC)c1
7. COc1ccccc1OCCOCCOc1c(C)cc(C)cc1Br
8. CC(=O)N1CCN(C(=O)c2ccc3c(c2)OCO3)CC1
compound no. | 1 | 2 | 3 | 4 | 5 | 6 | 7 | 8
GLA inh pH 4.5 | -1.5 | . | . | 0.0 | . | . | -4.5 | .
Rango-impB inh | -0.1% | -1.9% | 3.3% | -1.6% | 4.1% | -3.3% | -1.8% | 0.5%
miR-21 reporter | -5.5% | . | . | -0.2% | . | . | -12.6% | .
Rango dissoc inh | 6.3% | 8.7% | 5.6% | 2.2% | ? | -1.4% | 5.7% | -0.2%

Structures from the list above containing sulfur:
3. O=C(O)c1cccc(-n2sc3ccccc3c2=O)c1
4. C=CCn1cc(C(=O)NCCCOC)c(=O)c2cc(S(=O)(=O)N(CC)CC)ccc21
5. COc1ccc([C@H]2CC(=O)C=C(c3cc4ccccc4s3)C2)cc1OC
compound no. | 3 | 4 | 5
GLA inh pH 4.5 | . | 0.0 | .
Rango-impB inh | 3.3% | -1.6% | 4.1%
miR-21 reporter | . | -0.2% | .
Rango dissoc inh | 5.6% | 2.2% | ?

(further entries)
9. COC(=O)c1ccc(NC(=O)c2cn(-c3ccccc3)nc2-c2ccncc2)cc1
10. Cc1ccc(-c2nc(N)nc(N)n2)c(C)c1
11. CCn1c(CNC(=O)C2CCCCC2)cc2cc(C)ccc21
12. O=C(CCC(=O)c1ccc(F)cc1)NCc1ccccc1C(F)(F)F
13. CCCN1CCN(C(=O)Cn2ncc3c([nH]c4ccc(C)cc43)c2=O)CC1
14. NC(=O)NC(=O)COC(=O)c1ccccc1Oc1ccccc1
15. COc1cccc(C(c2nnnn2Cc2ccco2)N2CCN(Cc3ccccc3)CC2)c1OC (stereo not given)
16. CC(C)CCN(C(=O)c1cn2ccccc2n1)c1c(N)n(Cc2ccccc2)c(=O)[nH]c1=O
compound no. | 9 | 10 | 11 | 12 | 13 | 14 | 15 | 16
GLA inh pH 4.5 | -3.9 | . | . | . | . | 1.7 | -14.0 | .
Rango-impB inh | -0.5% | -0.2% | 0.1% | 6.2% | 0.7% | -6.3% | -2.7% | ?
miR-21 reporter | 14.1% | . | 2.0% | -2.5% | -1.0% | -7.5% | 2.3% | .
Rango dissoc inh | -12.9% | -4.1% | -12.6% | -22.6% | 1.5% | 1.2% | -20.9% | -10.7%

Quoted from the listing.
In Rango dissoc inh, entry 10 shows -4.1%
In Rango dissoc inh, entry 12 shows -22.6%
In Rango-impB inh, entry 14 shows -6.3%
In Rango dissoc inh, entry 15 shows -20.9%
In GLA inh pH 4.5, entry 9 shows -3.9

Following part:
17. CC(C)Oc1ccc(NC(=O)CCC(=O)O)cc1
18. COc1cc(/C=C/C(=O)N2CCN(c3ccccn3)CC2)cc(OC)c1OC
19. COc1ccc(-c2nnc(NC(=O)Cc3ccccc3)s2)c(OC)c1
20. O=C(NC1CC1)C1=C[C@@H](c2ccc(Br)cc2)C[C@@H](OCCCCO)O1
21. CC(=O)Nc1c(C(=O)c2ccccc2)oc2ccccc12
22. CCOc1ccc(-c2nonc2NC(=O)c2ccco2)cc1OCC
23. CSCc1c(C(=O)Nc2ccccc2N2CCOCC2)oc2ccccc12
24. CC(C)c1ccc(NC(=O)NCc2ccc3c(c2)OCO3)cc1
compound no. | 17 | 18 | 19 | 20 | 21 | 22 | 23 | 24
GLA inh pH 4.5 | 5.6 | . | -5.5 | 4.7 | -0.8 | . | . | .
Rango-impB inh | 0.0% | 1.7% | -2.1% | ? | 6.3% | -0.8% | -1.9% | 0.3%
miR-21 reporter | -2.5% | 3.0% | -5.3% | 1.3% | -4.8% | -14.0%&-9.4% | . | -18.8%
Rango dissoc inh | ? | -5.9% | -4.5% | 23.3% | 1.4% | ? | 11.0% | 10.4%

25. Cc1ccc(CC(=O)O/N=C(\N)Cc2ccc([N+](=O)[O-])cc2)cc1
26. O=c1cc(O)n(-c2ccc(Cl)cc2)c(=S)[nH]1
27. O=C(NCc1ccco1)c1cccc(NC(=O)c2ccccc2)c1
28. CN(C)CCN1C(=O)c2oc3ccccc3c(=O)c2C1c1ccccc1 (stereo not given)
29. O=C(CSc1ncc(C(F)(F)F)cc1Cl)N1CCNC1=O
30. COc1ccccc1N1CCN(CC(=O)c2ccc(F)cc2)CC1
31. CN1CCc2c(c3c(n2C)CCN(C)[C@@H]3c2cccnc2)[C@H]1c1cccnc1
32. NC1=NC(=O)/C(=C\c2cccs2)S1
compound no. | 25 | 26 | 27 | 28 | 29 | 30 | 31 | 32
GLA inh pH 4.5 | -4.3 | 0.8 | -0.3 | 2.5 | . | . | -16.4&-6.1 | -6.1
Rango-impB inh | -0.4% | -1.4% | -4.5% | . | -0.2% | 0.3% | 2.5% | -6.0%
miR-21 reporter | -12.5% | -5.5% | 8.1% | -8.1% | . | -6.3% | 1.7%&-1.0% | 0.7%
Rango dissoc inh | 0.3% | -6.5% | 0.7% | . | -4.5% | 19.6% | 2.0% | 15.6%

33. CCc1ccc(N(C(=O)CNC(=O)c2ccco2)C(C(=O)NC2CCCC2)c2cccnc2)cc1 (stereo not given)
34. C[C@H]1CN=C(N(C)C)N1CC1CCCCC1
35. COc1ccccc1N1CCN(C(=O)c2cc3sccc3n2C)CC1
36. CCOc1ccc(NC(=O)NCCCN2CCCC2)cc1
37. Clc1cc(Br)ccc1OCCOCCN1CCOCC1
38. Cc1cccc(C)c1NC(=O)c1cccc(N2C(=O)C3CCC(C)CC3C2=O)c1 (stereo not given)
39. CC(=O)Nc1cccc(C(=O)Nc2ccc(S(=O)(=O)N3CCCCC3)cc2)c1
40. CCC(C)(NC(=O)CNC(C)=O)C(=O)NC1CCCCC1 (stereo not given)
compound no. | 33 | 34 | 35 | 36 | 37 | 38 | 39 | 40
GLA inh pH 4.5 | . | . | 8.5 | 14.1 | 1.2 | . | . | -2.9
Rango-impB inh | -1.4% | 12.7% | -0.5% | -0.3% | ? | 0.3% | 3.7% | 4.8%
miR-21 reporter | -7.7% | . | 1.2% | -0.9% | -21.6% | -3.7% | . | -1.3%
Rango dissoc inh | -0.8% | -1.9% | 8.3% | -1.2% | -4.5% | 0.1% | -5.6% | 9.1%

Compound profiles, as listed above:
CCOc1ccc(NC(=O)NCCCN2CCCC2)cc1 as listed: GLA inh pH 4.5: 14.1; Rango-impB inh: -0.3%; miR-21 reporter: -0.9%; Rango dissoc inh: -1.2%
C[C@H]1CN=C(N(C)C)N1CC1CCCCC1 as listed: GLA inh pH 4.5: .; Rango-impB inh: 12.7%; miR-21 reporter: .; Rango dissoc inh: -1.9%

Remaining list, next part:
41. COc1ccc2c(c1)SCCC2=O
42. Cc1cccc(OCC(=O)O/N=C(\N)Cc2ccc([N+](=O)[O-])cc2)c1
43. CCOC(=O)c1ccc(N/C=C/C(=O)c2ccc(OC)cc2)cc1
44. CCCCC(=O)N/N=C/c1sccc1C
45. COc1ccc(/C=N/NC(=O)CN2CCCC2)cc1
46. O=C(COc1ccc2ccc(=O)oc2c1)Nc1nccs1
47. COc1ccc(C=NNC(=O)CCCC(=O)NN=Cc2ccc(OC)c(OC)c2)cc1OC
48. CC(C)OCCCNC(=O)c1c(N)n(/N=C/c2ccccn2)c2nc3ccccc3nc12
compound no. | 41 | 42 | 43 | 44 | 45 | 46 | 47 | 48
GLA inh pH 4.5 | 0.9 | -0.4 | 1.1 | 2.2 | . | . | . | -7.1
Rango-impB inh | 0.1% | 3.4% | 0.3% | -0.9% | 0.2% | 0.2% | 3.9% | 0.4%
miR-21 reporter | -2.7% | 3.2% | -3.9% | -25.9% | -3.5% | -51.3% | . | 1.9%
Rango dissoc inh | -14.7% | 32.9% | -9.4% | -2.8% | -4.0% | -1.4% | -2.8% | -11.0%

49. NC(=O)c1cc(-c2cccnc2)nc2ccc(Br)cc12
50. CCCCCn1c(CNC(=O)c2cccs2)nc2ccccc21
51. CC(C)Cn1c(=O)c(-[n+]2ccccc2)c([O-])c2ccccc21
52. Cc1ccc(C)c(NC(=O)CCNS(=O)(=O)c2ccc3[nH]c(=O)oc3c2)c1
53. CCC(C)(C)NC(=O)c1ccc2c(c1)S(=O)(=O)c1ccccc1C2=O
54. O=C(NOC(=O)c1c(F)cccc1Cl)c1ccc(Cl)c(Cl)c1
55. O=C(O)c1cc(Cl)c(Cl)cc1C(=O)NCc1ccco1
56. Cc1ccc(S(=O)(=O)NN2C(=O)/C(=C/c3ccc(F)cc3)SC2=S)cc1
compound no. | 49 | 50 | 51 | 52 | 53 | 54 | 55 | 56
GLA inh pH 4.5 | . | 3.5 | 10.2 | . | 3.6 | . | . | .
Rango-impB inh | 2.4% | 2.4% | -5.7% | 8.0% | -1.5% | 1.2% | -1.9% | -2.3%
miR-21 reporter | -4.2% | -0.1% | 1.0% | 0.4% | -34.9% | -35.2% | -2.4% | -0.4%
Rango dissoc inh | 1.5% | 0.7% | -0.1% | 9.8% | 12.6% | 18.0% | -23.4% | 5.6%

57. CC(CN1C(C)CCCC1C)OC(=O)c1ccc(Cl)cc1 (stereo not given)
58. NC(=O)C1CCN(CC(=O)N2N=CCC2c2ccccc2)CC1 (stereo not given)
59. COc1ccc(-n2nc(C(=O)N3CCC(N4CCCCC4)CC3)c3c4ccccc4n(C)c3c2=O)cc1
60. CNC(=O)c1[nH]cnc1C(=O)N[C@@H](CCCCNC(=O)OC(C)(C)C)C(=O)OC(C)(C)C
61. COc1ccccc1N1CCN(CC(=O)Nc2nccs2)CC1
62. COc1ccc(S(=O)(=O)Nc2c(O)c3ccccc3oc2=O)cc1
63. O=C(O)c1ccc2c(c1)C(=O)N(c1ccc(C(=O)OCC(=O)c3ccccc3)cc1)C2=O
64. O=C(O)C1Nc2c(Cl)cc(Cl)c(Cl)c2C2C=CCC12 (stereo not given)
compound no. | 57 | 58 | 59 | 60 | 61 | 62 | 63 | 64
GLA inh pH 4.5 | -3.4 | 1.8 | . | -6.1 | . | . | . | .
Rango-impB inh | 0.1% | 0.8% | -1.1% | -0.1% | -0.4% | 4.1% | 2.5% | -1.0%
miR-21 reporter | -1.5% | -2.0% | -1.1% | 5.3% | -3.6% | -17.6% | . | .
Rango dissoc inh | 1.3% | -6.0% | -14.7% | -10.4% | -5.0% | 9.1% | 0.3% | 7.1%

65. O=C(c1cccc([N+](=O)[O-])c1)N1CCCN(C(=O)c2cccc([N+](=O)[O-])c2)CC1
66. CCSC1=N/C(=C\C=C2/Oc3ccccc3N2CC)C(=O)S1
67. O=C(Nc1nc(-c2cccs2)cs1)c1ccc([N+](=O)[O-])o1
68. CC(OC(=O)Cc1ccccc1[N+](=O)[O-])C(=O)Nc1ccc(Cl)cn1 (stereo not given)
69. CCN(CC)c1cc2nonc2c2nonc12
70. CC(=C1C(=O)c2ccccc2C1=O)N1CCN(Cc2ccccc2)CC1
71. COc1ccc(N2CCN(C(=O)C3CCN(C(=O)c4cccc(Cl)c4)CC3)CC2)cc1
72. Cc1nc(NNC(=O)c2ccc(Cl)cc2Cl)cc(-c2ccccc2)n1
73. O=C(N/N=C/C=C/c1ccccc1[N+](=O)[O-])c1cccnc1
74. CCOC(=O)/C(=N\Nc1ccc(Cl)cc1)Sc1nnc(-c2ccc(OC)cc2)n1C
compound no. | 65 | 66 | 67 | 68 | 69 | 70 | 71 | 72 | 73 | 74
GLA inh pH 4.5 | 2.7 | -0.8 | . | . | -14.2 | -4.9 | . | 3.1 | 1.0 | -2.7
Rango-impB inh | ? | 7.9% | 0.2% | -0.2% | 0.3% | -1.8% | -0.4% | 1.9% | -0.8% | 0.5%
miR-21 reporter | 2.2% | -3.8% | . | . | -5.1% | -4.5% | 7.8% | -2.6% | -1.8% | 3.7%
Rango dissoc inh | 2.3% | 1.3% | -3.7% | 13.1% | ? | 11.7% | -0.1% | -11.1% | 13.1% | -7.5%

Screening results (PubChem BioAssay)

This is a subset. The share of hits here may be higher or lower than overall.
